Polio RdRp inh: poliovirus RdRp elongation inhibitors, primary screen, biochemical, fluorescence polarization, total intensity | % elongation, % (compound at 16.7 µg/mL) | AID 588519, 2011 | hit rate 0.66% among 150,000 | poliovirus polymerase elongation; stronger effect = lower value; in the data active means % elongation below about 90%; further: some results filed as inactive read as strong as hits
MenB inh: M. tuberculosis MenB inhibitors, primary screen, biochemical, absorbance | MenB enzyme assay, absorbance read-out; some hits fall short of the stated cut | inhibition, %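 (about 12 µg/mL by stock and volumes)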 | 1,4-dihydroxy-2-naphthoyl-CoA synthase (Mycobacterium tuberculosis (strain ATCC 25618 / … | hit rate 0.43% among 100,000;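 active means mean of two replicates above 30%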;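 further: 0% = no compound and 100% = wells with inactive enzyme; the first replicate is given; strong numbers were not always called active; inactives centre near -10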
Target sequence (P9WNP5 whole entry, looked up): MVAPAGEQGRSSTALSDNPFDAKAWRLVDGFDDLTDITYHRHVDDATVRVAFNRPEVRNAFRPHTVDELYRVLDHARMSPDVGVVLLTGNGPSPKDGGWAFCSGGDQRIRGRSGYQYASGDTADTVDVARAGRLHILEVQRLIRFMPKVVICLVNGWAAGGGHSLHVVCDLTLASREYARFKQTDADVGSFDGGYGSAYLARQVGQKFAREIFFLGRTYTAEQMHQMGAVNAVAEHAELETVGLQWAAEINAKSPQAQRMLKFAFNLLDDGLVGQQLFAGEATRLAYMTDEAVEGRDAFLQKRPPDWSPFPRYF
MbtI inh: MbtI salicylate synthase inhibitors, primary screen, biochemical, fluorescence intensity; hit rate 0.89% among 100,000; purified MbtI enzyme, fluorescence intensity read-out; inhibition, %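 (about 17 µg/mL by stock and volumes)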; P9WFX0;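 active means above 50% in both replicates, above 80% if mildly self-fluorescent; inactive means the rest, strongly fluorescent compounds included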;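 further: 0% = mean of negative and 100% = mean of positive controls; one replicate is shown; some compounds called inactive have numbers as strong as hits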
Target sequence (P9WFX0 whole entry, looked up): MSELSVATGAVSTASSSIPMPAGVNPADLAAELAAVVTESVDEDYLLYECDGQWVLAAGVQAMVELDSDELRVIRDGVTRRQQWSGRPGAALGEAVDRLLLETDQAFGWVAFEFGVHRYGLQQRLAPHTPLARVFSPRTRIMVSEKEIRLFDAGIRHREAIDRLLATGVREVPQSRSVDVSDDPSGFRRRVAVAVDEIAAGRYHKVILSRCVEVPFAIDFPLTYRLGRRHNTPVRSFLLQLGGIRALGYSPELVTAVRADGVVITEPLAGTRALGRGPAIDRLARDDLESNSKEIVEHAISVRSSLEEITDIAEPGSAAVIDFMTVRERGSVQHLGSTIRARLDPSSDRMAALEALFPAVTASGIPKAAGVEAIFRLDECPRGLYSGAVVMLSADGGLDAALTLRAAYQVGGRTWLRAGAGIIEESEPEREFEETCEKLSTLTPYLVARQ
Polio RdRp inh intensity: second read-out of Polio RdRp inh, no call of its own (marks repeat the call); % elongation; measured here: total intensity read-out; formula for this scale not given here;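 total fluorescence in place of polarization; lower means less elongation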
Active calls of the source: *.

The first 14 records, to show the layout:
Screening O=C(c1noc2c1COc1ccccc1-2)N(Cc1ccccc1)Cc1cccs1 returned Polio RdRp inh 103, MenB inh -12, MbtI inh -11 and Polio RdRp inh intensity 100.
Cc1c(C(=O)N2CCCc3ccccc32)sc2nc(-c3ccccc3)cn12 was read as Polio RdRp inh 101, MenB inh -3, MbtI inh 0 and Polio RdRp inh intensity 106.
For CS(=O)(=O)N(Cc1ccc(Cl)cc1)c1ccc(C(=O)N2CCCCCC2)cc1 the results were Polio RdRp inh 104, MenB inh -25, MbtI inh -14 and Polio RdRp inh intensity 109.
O=C1Oc2ccccc2C(=O)/C1=C/N1CCc2ccccc21 was read as Polio RdRp inh 100, MbtI inh -5 and Polio RdRp inh intensity 96.
Screening CCOC(=O)CC(N)c1ccccc1Cl (stereo not drawn) returned Polio RdRp inh 100, MenB inh 7 and Polio RdRp inh intensity 107.
O=C(N/N=C/c1ccco1)c1csc2c1CCCC2 was read as Polio RdRp inh 104, MenB inh -23, MbtI inh 5 and Polio RdRp inh intensity 101.
Cn1ncc2c(NCc3cccnc3)ncnc21 was read as Polio RdRp inh 101, MenB inh -8, MbtI inh 1 and Polio RdRp inh intensity 101.
Cc1cc(COC(=O)/C(C#N)=C/c2ccc(N(C)C)cc2)no1 was read as Polio RdRp inh 130, MenB inh -3, MbtI inh 17 and Polio RdRp inh intensity 156.
For CC1=CC2=NS(=O)(=O)CCN2C=C1 the results were Polio RdRp inh 96, MenB inh -1, MbtI inh 99 and Polio RdRp inh intensity 102.
`CC(C)(Cc1ccc(O)cc1)NC(=O)c1ccccc1` gave Polio RdRp inh 102, MenB inh -7, MbtI inh -14 and Polio RdRp inh intensity 102.
CCn1cc(S(=O)(=O)c2ccc(OC)cc2)c(=O)c2ccccc21 was read as Polio RdRp inh 100, MenB inh 2, MbtI inh 0 and Polio RdRp inh intensity 104.
c1ccc(Nc2nc3c(s2)Cc2ccccc2-3)cc1 was read as Polio RdRp inh 94, MenB inh -14, MbtI inh 10 and Polio RdRp inh intensity 97.
`CC(C)NC(=O)C(F)(F)F` gave Polio RdRp inh 101, MenB inh 5, MbtI inh -22 and Polio RdRp inh intensity 99.
Screening Cc1ccc(-n2ncc3c(=O)n(-c4ccc(C(C)C)cc4)c(-c4ccco4)nc32)cc1 returned Polio RdRp inh 98, MenB inh -15, MbtI inh -9 and Polio RdRp inh intensity 103.

The listing, from the first entry:
Screening O=C(c1noc2c1COc1ccccc1-2)N(Cc1ccccc1)Cc1cccs1 returned Polio RdRp inh 103, MenB inh -12, MbtI inh -11 and Polio RdRp inh intensity 100.
Cc1c(C(=O)N2CCCc3ccccc32)sc2nc(-c3ccccc3)cn12 was read as Polio RdRp inh 101, MenB inh -3, MbtI inh 0 and Polio RdRp inh intensity 106.
For CS(=O)(=O)N(Cc1ccc(Cl)cc1)c1ccc(C(=O)N2CCCCCC2)cc1 the results were Polio RdRp inh 104, MenB inh -25, MbtI inh -14 and Polio RdRp inh intensity 109.
O=C1Oc2ccccc2C(=O)/C1=C/N1CCc2ccccc21 was read as Polio RdRp inh 100, MbtI inh -5 and Polio RdRp inh intensity 96.
Screening CCOC(=O)CC(N)c1ccccc1Cl (stereo not drawn) returned Polio RdRp inh 100, MenB inh 7 and Polio RdRp inh intensity 107.
O=C(N/N=C/c1ccco1)c1csc2c1CCCC2 was read as Polio RdRp inh 104, MenB inh -23, MbtI inh 5 and Polio RdRp inh intensity 101.
Cn1ncc2c(NCc3cccnc3)ncnc21 was read as Polio RdRp inh 101, MenB inh -8, MbtI inh 1 and Polio RdRp inh intensity 101.
Cc1cc(COC(=O)/C(C#N)=C/c2ccc(N(C)C)cc2)no1 was read as Polio RdRp inh 130, MenB inh -3, MbtI inh 17 and Polio RdRp inh intensity 156.
For CC1=CC2=NS(=O)(=O)CCN2C=C1 the results were Polio RdRp inh 96, MenB inh -1, MbtI inh 99 and Polio RdRp inh intensity 102.
`CC(C)(Cc1ccc(O)cc1)NC(=O)c1ccccc1` gave Polio RdRp inh 102, MenB inh -7, MbtI inh -14 and Polio RdRp inh intensity 102.
CCn1cc(S(=O)(=O)c2ccc(OC)cc2)c(=O)c2ccccc21 was read as Polio RdRp inh 100, MenB inh 2, MbtI inh 0 and Polio RdRp inh intensity 104.
c1ccc(Nc2nc3c(s2)Cc2ccccc2-3)cc1 was read as Polio RdRp inh 94, MenB inh -14, MbtI inh 10 and Polio RdRp inh intensity 97.
`CC(C)NC(=O)C(F)(F)F` gave Polio RdRp inh 101, MenB inh 5, MbtI inh -22 and Polio RdRp inh intensity 99.
Screening Cc1ccc(-n2ncc3c(=O)n(-c4ccc(C(C)C)cc4)c(-c4ccco4)nc32)cc1 returned Polio RdRp inh 98, MenB inh -15, MbtI inh -9 and Polio RdRp inh intensity 103.
`Cc1ccc(CCCC(=O)NC2CCS(=O)(=O)C2)cc1` (stereo not drawn) gave Polio RdRp inh 103, MenB inh -4, MbtI inh -7 and Polio RdRp inh intensity 105.
CN(Cc1ccc(Br)cc1)S(=O)(=O)c1cccc(C#N)c1 was read as Polio RdRp inh 102, MenB inh 15, MbtI inh -5 and Polio RdRp inh intensity 101.
Cc1ccc(Nc2c(-c3ccc(C)o3)nc3nc(C)cc(C)n23)cc1 was read as Polio RdRp inh 102, MenB inh -23, MbtI inh 16 and Polio RdRp inh intensity 109.
CCOc1cc(/C=C(\C#N)C(=O)OC(C)C)ccc1OCC(=O)N(C)C was read as Polio RdRp inh 101, MenB inh -30, MbtI inh -5 and Polio RdRp inh intensity 102.
`CCOc1cc2c(cc1OCC)C1c3ccccc3OCC(=O)N1CC2` (stereo not drawn) gave Polio RdRp inh 104, MenB inh 8 and Polio RdRp inh intensity 111.
For CSc1ccc(S(=O)(=O)NCCc2ccccc2)cc1 the results were Polio RdRp inh 102, MenB inh -16, MbtI inh -14 and Polio RdRp inh intensity 103.
Screening N#Cc1ccc(CSCCN2C(=O)c3ccccc3C2=O)cc1 returned Polio RdRp inh 99, MenB inh -2, MbtI inh 9 and Polio RdRp inh intensity 101.
N#CC1(C#N)[C@@H]2c3ccccc3C=CN2[C@@H](C(N)=O)[C@@H]1c1ccc(F)cc1 was read as Polio RdRp inh 94, MenB inh -6 and Polio RdRp inh intensity 92.
Screening CS(=O)(=O)C1=C(N)C(=O)N(c2ccccc2)C1c1ccccc1 (stereo not drawn) returned Polio RdRp inh 106, MenB inh -2 and Polio RdRp inh intensity 113.
For COCCCn1c(SCc2cc(=O)oc3cc(O)c(O)cc23)nnc1-c1ccc(Cl)cc1 the results were Polio RdRp inh 104, MenB inh -51, MbtI inh 12 and Polio RdRp inh intensity 107.
Screening O=C(c1cc(S(=O)(=O)N2CCCCC2)ccc1N1CCCC1)N1CC=C(c2ccccc2)CC1 returned Polio RdRp inh 102, MenB inh -9, MbtI inh 14 and Polio RdRp inh intensity 98.
For COc1ccc2cc3cc(C(=O)Nc4ccc(Oc5ccccc5)cc4)oc3nc2c1 the results were Polio RdRp inh 101, MenB inh -34, MbtI inh -3 and Polio RdRp inh intensity 105.
For O=C(CC(C(=O)Nc1ccc2c(c1)OCO2)C(=O)c1ccccc1)NC1CCS(=O)(=O)C1 (stereo not drawn) the results were Polio RdRp inh 103, MenB inh 9, MbtI inh -4 and Polio RdRp inh intensity 99.
`CN(C)C(=O)Nc1ccc2c(c1)nnn2C` gave Polio RdRp inh 102, MenB inh -9, MbtI inh 43 and Polio RdRp inh intensity 102.
CC1CN(C(=S)NC(=O)C2CC2)CCN1C(=S)NC(=O)C1CC1 (stereo not drawn) was read as Polio RdRp inh 101, MenB inh -62, MbtI inh 5 and Polio RdRp inh intensity 107.
NCCN1C(=O)C2C3c4ccccc4C(c4ccccc43)C2C1=O (stereo not drawn) was read as Polio RdRp inh 103, MenB inh 0, MbtI inh -6 and Polio RdRp inh intensity 102.
`CNCc1ccc(N2CCCC2)cc1` gave Polio RdRp inh 107, MenB inh -9, MbtI inh 4 and Polio RdRp inh intensity 106.
COC(=O)c1sccc1S(=O)(=O)Nc1ccc(-c2cn3c(n2)SCC3)cc1 was read as Polio RdRp inh 112, MenB inh -1, MbtI inh 10 and Polio RdRp inh intensity 118.
COc1ccc(OC)c(-c2csc(=Nc3ccccc3)n2CCCn2ccnc2)c1 was read as Polio RdRp inh 100, MenB inh -33, MbtI inh 6 and Polio RdRp inh intensity 103.
CC(=O)Nc1ccc(S(=O)(=O)NCc2ccc(C(=O)NCc3ccccc3)cc2)cc1 was read as Polio RdRp inh 102, MenB inh -4, MbtI inh -4 and Polio RdRp inh intensity 100.
For COc1ccc(N(C(=O)c2ccco2)c2ccccc2)cc1 the results were Polio RdRp inh 111, MenB inh 1 and Polio RdRp inh intensity 110.
For O=C1CC2CC3CC(C2)CC1C3 the results were Polio RdRp inh 100, MenB inh -24, MbtI inh -1 and Polio RdRp inh intensity 101.
`CC1=C(c2ccc(C)cc2)S(=O)(=O)N=C1N1CCCC1` gave Polio RdRp inh 106, MenB inh -97, MbtI inh 3 and Polio RdRp inh intensity 108.
Cc1ccc(CN2CCN(C/C=C/c3ccccc3)CC2)cc1 was read as Polio RdRp inh 100, MenB inh -3, MbtI inh -15 and Polio RdRp inh intensity 103.
`O=C(O)C1CCN(S(=O)(=O)c2ccc(-c3nn[nH]n3)cc2)CC1` gave Polio RdRp inh 106, MenB inh -10, MbtI inh -12 and Polio RdRp inh intensity 100.
`CC1CCN(S(=O)(=O)c2cn(CC(=O)N3CC(C)CC(C)C3)c(=O)c3ccccc23)CC1` (stereo not drawn) gave Polio RdRp inh 99, MenB inh -5, MbtI inh 6 and Polio RdRp inh intensity 103.
For COC(=O)c1cc(S(=O)(=O)NCc2ccc(S(N)(=O)=O)cc2)oc1C the results were Polio RdRp inh 100, MenB inh -5, MbtI inh -7 and Polio RdRp inh intensity 101.
For O=C1c2ccccc2C(=O)N1CN1c2cccc3cccc(c23)S1(=O)=O the results were Polio RdRp inh 102, MenB inh -4, MbtI inh 1 and Polio RdRp inh intensity 114.
Screening CN(C(=O)Cn1nc(Cc2cccnc2)c2ccccc2c1=O)c1ccccc1 returned Polio RdRp inh 102, MenB inh 0, MbtI inh 0 and Polio RdRp inh intensity 103.
`CC(=O)Nc1cccc(SSc2cccc(NC(C)=O)c2)c1` gave Polio RdRp inh 99, MenB inh 10, MbtI inh 97* and Polio RdRp inh intensity 99.
For COc1ccccc1OCCNC(=O)C1CCCCC1 the results were Polio RdRp inh 101, MenB inh -18, MbtI inh -11 and Polio RdRp inh intensity 103.
NC(=O)CSc1nnc(NC(=O)Cc2cccs2)s1 was read as Polio RdRp inh 101, MenB inh 6, MbtI inh 7 and Polio RdRp inh intensity 108.
Screening O=C(Nc1ccc(O)cc1)c1ccc2ccccc2c1 returned Polio RdRp inh 100, MenB inh -5, MbtI inh 21 and Polio RdRp inh intensity 104.
For Cc1ccc(NC(=O)CSc2c(C)cc(=O)n(N)c2C)cc1C the results were Polio RdRp inh 108, MenB inh -15, MbtI inh -5 and Polio RdRp inh intensity 111.
For Cc1oc(C23CC4CC(CC(C4)C2)C3)cc1C(=O)N1CCOCC1 the results were Polio RdRp inh 102, MenB inh -36, MbtI inh 0 and Polio RdRp inh intensity 104.
For Cc1cc2c(c(=O)[nH]1)C(c1ccncc1)C(C#N)=C(N)O2 (stereo not drawn) the results were Polio RdRp inh 104, MenB inh -20, MbtI inh 3 and Polio RdRp inh intensity 105.
Screening O=C(c1cc(-c2ccc(Cl)cc2)n[nH]1)N1CCCC1 returned Polio RdRp inh 106, MenB inh -24, MbtI inh -8 and Polio RdRp inh intensity 99.
`O=C(O)c1sccc1S(=O)(=O)N1CCN(c2ncc(C(F)(F)F)cc2Cl)CC1` gave Polio RdRp inh 101, MenB inh -7, MbtI inh -9 and Polio RdRp inh intensity 102.
For CN=C1S/C(=C\c2ccc(N3CCCC3)cc2)C(=O)N1C the results were Polio RdRp inh 113, MenB inh -12, MbtI inh 7 and Polio RdRp inh intensity 131.
For CC1CCN(CCNS(=O)(=O)c2csc(C(N)=O)c2)CC1 the results were Polio RdRp inh 100, MenB inh -16, MbtI inh -11 and Polio RdRp inh intensity 103.
For COC(CNC(=O)c1ccc2c(c1)ncn2C1CCCCCC1)OC the results were Polio RdRp inh 99, MenB inh -4, MbtI inh -2 and Polio RdRp inh intensity 104.
CCC(C(=O)NCC1CCCO1)c1ccccc1 (stereo not drawn) was read as Polio RdRp inh 109, MenB inh 6 and Polio RdRp inh intensity 106.
`CCn1cnc2cc(NC(=O)c3cc(OC)c(OC)c(OC)c3)ccc21` gave Polio RdRp inh 102, MenB inh 9, MbtI inh -2 and Polio RdRp inh intensity 104.
CNC(=S)N(CCc1c(C)[nH]c2ccccc12)Cc1cc(OC)c(OC)c(OC)c1 was read as Polio RdRp inh 101, MenB inh -25, MbtI inh -5 and Polio RdRp inh intensity 104.
For c1ccc(CSc2ccc3nnc(-c4ccccn4)n3n2)cc1 the results were Polio RdRp inh 102, MenB inh 2, MbtI inh -2 and Polio RdRp inh intensity 105.

Pulled one by one from the list above, two records:
For Cc1ccc(NC(=O)CSc2c(C)cc(=O)n(N)c2C)cc1C the results were Polio RdRp inh 108, MenB inh -15, MbtI inh -5 and Polio RdRp inh intensity 111.
For COC(CNC(=O)c1ccc2c(c1)ncn2C1CCCCCC1)OC the results were Polio RdRp inh 99, MenB inh -4, MbtI inh -2 and Polio RdRp inh intensity 104.

Source: PubChem (ICCB-Longwood Screening Facility, Harvard Medical School)

No enrichment for hits; about 1.8% have a hit in one of these screens.
